KCNQ2 block = KCNQ2 channel blockers in CHO-K1 cells – cell-based, FluxOR thallium flux, B-score, primary screen (AID 2156); O88943; 310,000 compounds, 1.1% hits; 20 min; hits give low values; only compounds with negative scores are shown here; some inactives read as strong as hits; B-score at 10 µM;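 active = fluorescence ratio B-score at most minus 3 library SDs, with starting brightness B-score within 2 library SDs, cut at about -5.5 in these data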
Target sequence (O88943 whole entry, looked up): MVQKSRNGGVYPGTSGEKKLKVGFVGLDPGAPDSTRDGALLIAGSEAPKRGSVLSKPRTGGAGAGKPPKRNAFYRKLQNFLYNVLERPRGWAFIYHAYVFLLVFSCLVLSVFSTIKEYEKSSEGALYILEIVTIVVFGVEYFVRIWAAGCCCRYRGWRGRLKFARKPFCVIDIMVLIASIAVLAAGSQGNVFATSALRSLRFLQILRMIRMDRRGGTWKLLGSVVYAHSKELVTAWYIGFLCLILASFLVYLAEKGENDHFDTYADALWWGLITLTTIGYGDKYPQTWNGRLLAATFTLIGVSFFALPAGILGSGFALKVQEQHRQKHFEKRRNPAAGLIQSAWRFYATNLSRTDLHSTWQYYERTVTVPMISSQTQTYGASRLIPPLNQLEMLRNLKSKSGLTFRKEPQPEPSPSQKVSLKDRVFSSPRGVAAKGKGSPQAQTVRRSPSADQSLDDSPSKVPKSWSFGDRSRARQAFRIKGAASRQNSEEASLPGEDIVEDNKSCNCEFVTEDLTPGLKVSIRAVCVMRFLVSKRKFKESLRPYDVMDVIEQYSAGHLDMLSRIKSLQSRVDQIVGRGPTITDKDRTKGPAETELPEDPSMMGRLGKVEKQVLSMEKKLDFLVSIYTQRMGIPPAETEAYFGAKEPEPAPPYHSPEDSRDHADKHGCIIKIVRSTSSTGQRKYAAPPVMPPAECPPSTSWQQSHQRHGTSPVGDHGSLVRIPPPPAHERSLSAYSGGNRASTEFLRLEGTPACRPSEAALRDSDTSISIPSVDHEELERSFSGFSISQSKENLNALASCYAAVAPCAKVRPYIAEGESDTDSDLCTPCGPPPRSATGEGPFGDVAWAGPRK
KCNQ2 block baseline = second read-out of KCNQ2 block, no call of its own (marks repeat the call); B-score; measured here: initial fluorescence intensity artifact check;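 brightness before thallium and not channel activity; 0 = typical well and far values either way flag optical interference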
The depositor's hits bear a star; i = inactive. This is a subset; the hit share may differ from the screen's.

KCNQ2 block,KCNQ2 block baseline,canonical_smiles
i,1.2,C=CCCN(C(CC(C)C)C(=O)OC)S(=O)(=O)c1ccccc1Br (configuration not stated)
i,0.95,O=C(Nc1c2c(nn1-c1cccc(Cl)c1)CS(=O)C2)c1ccc2c(c1)OCO2 (configuration not stated)
i,0.32,CC(=O)NC(CC(=O)Oc1ccc(C)cc1Br)c1ccccc1 (configuration not stated)
i,-0.98,COc1cccc(-c2nn(-c3ccccc3)cc2C(=O)NCC(=O)O)c1
i,-1,O=C(Cc1cn(Cc2cccc(Cl)c2)c2ccccc12)N1CCCC1
i,-0.54,Cc1ccc(C(C(=O)NCc2ccc(F)cc2)N(C(=O)c2csnn2)C2CC2)cc1 (configuration not stated)
i,-2.2,Cc1ccc(C)c2c1cc(C)c1nnc(SCC(=O)c3cccs3)n12
i,0.96,COc1ccc(N2CCN(C(=O)CCC(=O)N3CCOc4ccc(Cl)cc43)CC2)cc1
i,-1.4,C#CCOC(=O)C[N+](C)(C)CC#Cc1ccccc1
i,2,O=C(NCC1COCCO1)C1CCN(S(=O)(=O)c2ccccc2)CC1 (configuration not stated)
i,-0.83,Cc1nc2cc(NC(=O)NCc3ccc4c(c3)OCO4)ccc2o1
i,1,Cc1cc2c(cc(C(=O)NCc3cccnc3)n2Cc2ccc(Cl)cc2)o1
i,1.8,Cc1ccc(C)c(N=Cc2cc3c(cc2[N+](=O)[O-])OCO3)c1
i,1.6,O=C(CCNC(=O)c1ccccc1Cl)Nc1ccncc1
i,2.3,CC(C)c1nc2sc3c(SCC(=O)NCc4ccco4)ncnc3c2c2c1CCC2
i,-0.4,CCOC(=O)Cn1cc(C(=O)C2CC2)c2ccccc21
i,1.1,CSc1ccc(S(=O)(=O)N2CC(=O)Nc3ccccc32)cc1
i,-0.8,CCOC(=O)CC1C(=O)NCCN1C(=O)c1ccc(C)cc1 (configuration not stated)
i,0.73,O=C(NCc1ccc(F)cc1)c1cc(C(=O)C2CC2)c[nH]1
i,-1.1,CC(C)[C@H](NC(=O)c1ccc(Cl)c([N+](=O)[O-])c1)C(=O)NCc1ccc(F)cc1
i,1.8,O=C(CSc1ccc(Br)cc1)NCC(c1ccco1)N1CCCCC1 (configuration not stated)
i,-1.1,Cn1c(=O)c2c(nc(/C=C/c3cccc(Cl)c3)n2C)n(C)c1=O
i,0.77,Cn1cccc1C(=O)NCCc1ccccc1
i,-0.73,CCCn1c(SCC(=O)c2ccc(CC)cc2)n[nH]c1=O
i,1.1,O=C(NS(=O)(=O)Nc1ccc(Br)cn1)c1c[nH]c2ccccc12
i,0.03,CC(C)[C@H](NC(=O)c1ccccc1)C(=O)OCC(=O)c1ccc(S(=O)(=O)N2CCCCC2)cc1
i,1.4,Cc1cc2c(o1)CC(C)(C)CC2=O
i,-1.9,CCOC(=O)c1c(C)[nH]c(C(=O)OCC(=O)c2ccc(OC)cc2OC)c1C
i,0.06,Cc1cc(-c2cc(C(=O)NCc3ccccc3)on2)nc(S(C)(=O)=O)n1
i,-1.3,Oc1cc(Cc2ccccc2)cnc1CN1CCOCC1
i,-1.3,Cc1ccc(-n2c(C)n[nH]c2=S)cc1C
i,-2.4,CCOc1ccc(NC(=O)CN(C)C(=O)C2CCN(c3ncnc4sc(C)c(C)c34)CC2)cc1OCC
i,0.42,CC(OC(=O)c1cc2sccc2n1C)C(=O)NC(C)(C)C (configuration not stated)
i,1.3,O=C(CCN1C(=O)S/C(=C/c2ccc(Cl)cc2)C1=O)N1CCOCC1
i,0.3,COc1ccc(C2C(C#N)=C(N)OC3=C2C(=O)CCC3)cc1Cn1cc([N+](=O)[O-])cn1 (configuration not stated)
i,-0.18,Cc1cc(C)n2nc(SCC(=O)N(Cc3ccccc3)C3CCS(=O)(=O)C3)nc2n1 (configuration not stated)
i,-0.35,Nc1ccccc1Nc1cccc(C(F)(F)F)c1
i,-0.08,Cc1ccc(-n2c(=O)c(C#N)cc3c(=O)n4ccccc4nc32)cc1
i,2.1,O=C(CC(c1ccccc1)c1ccccc1)NCC(O)c1ccc([N+](=O)[O-])cc1 (configuration not stated)
i,1.2,CC(=O)N[C@H](Cc1c[nH]c2ccccc12)C(=O)O

4 of the compounds above, with bars between the fields:
SMILES | KCNQ2 block | KCNQ2 block baseline
Nc1ccccc1Nc1cccc(C(F)(F)F)c1 | i | -0.35
CC(OC(=O)c1cc2sccc2n1C)C(=O)NC(C)(C)C (configuration not stated) | i | 0.42
CC(=O)N[C@H](Cc1c[nH]c2ccccc12)C(=O)O | i | 1.2
O=C(CCN1C(=O)S/C(=C/c2ccc(Cl)cc2)C1=O)N1CCOCC1 | i | 1.3

(continued)
KCNQ2 block,KCNQ2 block baseline,canonical_smiles
i,-1.9,COc1ccccc1NC(=O)Cn1c(CCC(=O)O)ccc1-c1ccc(C)cc1
i,0.62,CCc1ccc(NS(=O)(=O)c2cccs2)cc1
i,-0.21,CCCN=C(Nc1ccc(Cl)cc1)c1cccnc1
i,-0.79,CCOC(=O)c1c(C)[nH]c(C(=O)CSc2ccccc2)c1C
i,1.1,Cn1cnnc1SCC(=O)Nc1sc2c(c1C#N)CCCCC2
i,-0.26,CC(=O)Nc1ccc(S(=O)(=O)N(c2cccnc2)S(=O)(=O)c2ccc(NC(C)=O)cc2)cc1
i,-0.62,Cc1ccc(NC(=O)COC(=O)c2csc3c2CCC(C)C3)cc1S(=O)(=O)N1CCCCC1 (configuration not stated)
i,-1.3,CN(C)NC1=CC(=[N+]2CCCC2)CC(C)(C)C1
i,-1.9,COc1ccc(-c2nnn(CC(=O)NCCc3ccc(OC)c(OC)c3)n2)cc1
i,-0.06,COC(=O)c1cc(NS(=O)(=O)c2ccc(N3CCOCC3)c(NC(C)=O)c2)cc(C(=O)OC)c1
i,1,CCN(CC)C(=O)CN1C(=O)/C(=C/c2ccccc2)SC1=S
i,0.07,Cn1cc([C@@H]2C[C@H]3CN(Cc4cccc(Cl)c4)C(=O)[C@]34CCCN24)c(-c2ccccc2)n1
i,1.9,COc1ccc2c(c1)c(=O)c(C(=O)c1ccccc1)cn2Cc1ccccc1
i,0.46,C=CCNC(=S)NNc1nc(Nc2ccccc2)nc(N2CCCCC2)n1
i,0.94,CC(C)CNC(=O)[C@H]1N2C(=O)c3ccccc3C2SC1(C)C (some centres not stated)
i,0.19,Nc1c(S(=O)(=O)c2ccccc2)c2nc3ccccc3nc2n1/N=C/c1ccco1

The final 2 records of the part above lead into the next:
KCNQ2 block,KCNQ2 block baseline,canonical_smiles
i,0.94,CC(C)CNC(=O)[C@H]1N2C(=O)c3ccccc3C2SC1(C)C (some centres not stated)
i,0.19,Nc1c(S(=O)(=O)c2ccccc2)c2nc3ccccc3nc2n1/N=C/c1ccco1
i,-0.07,COc1cccc(CNc2nc3nc(C)c(Cl)c(C)n3n2)c1
i,3.7,O=C(COC(=O)CCC(=O)c1cccs1)NC1CC1
i,-0.6,O=C(NC1CC1)C1=C[C@H](c2csc3ccccc23)C[C@H](OCc2ccc(CO)cc2)O1
i,0.63,CC(=O)c1cc2c(cc1NC(=O)c1cccc(S(=O)(=O)N3CCN(C)CC3)c1)OCO2
i,-1.1,CC1CCN(C(=O)c2ccc3c(Cl)c4c(nc3c2)CCCC4)CC1
i,-0.03,CCC(=O)Nc1nnc(S(=O)(=O)N2c3ccccc3CC2C)s1 (configuration not stated)
i,67,CCCCN1/C(=C/c2ccc3ccccc3[n+]2CC)Sc2ccccc21
i,-0.24,CC(=O)N1N=C(c2ccncc2)OC12CCCC2
i,0.8,Cc1cccc(-c2noc(CNS(=O)(=O)c3ccccc3)n2)c1
i,-0.09,CCC(Oc1ccccc1)C(=O)Nc1cc(Cl)ccc1-n1cncn1 (configuration not stated)
i,-0.35,COc1ccc(C2=CC(=O)N(Nc3ccccc3)C2=O)cc1
i,-0.23,CCOC(=O)N1CCN(C(=O)C2CCN(S(=O)(=O)c3cc(OC)ccc3OC)CC2)CC1
i,0.12,CCc1ccc(NC(=O)[C@@H](NC(=O)[C@@H]2Cc3ccccc3CN2)C(C)CC)cc1 (some centres not stated)
i,0.38,COc1cccc(/C=C(/C#N)c2nc3ccccc3[nH]2)c1OC(C)C(=O)O (configuration not stated)
i,-1.6,Fc1ccccc1C1c2cccn2CCN1C(=S)Nc1ccc(Br)cc1 (configuration not stated)
i,-0.39,Cc1ccc(CNC(=O)CS(=O)Cc2nc(-c3ccccc3F)oc2C)cc1 (configuration not stated)
i,-0.19,COc1ccc2cc3cc(C(=O)NCc4ccccn4)oc3nc2c1
i,1.7,CC(=O)Nc1ccc(NC(=O)CN(c2cccc(C(C)=O)c2)S(C)(=O)=O)cc1
i,-1.4,O=C(CSc1n[nH]c(-c2ccc(Cl)cc2Cl)n1)Nc1ccccn1
i,1.6,O=[N+]([O-])c1cc([N+](=O)[O-])c2nonc2c1Nc1ccccc1O
i,0.06,COC(=O)c1ccccc1-n1c(C)nc(=O)c(-c2ccccc2)c1C
i,-0.05,COCOc1ccc(C=O)cc1OCOC
i,-1.4,Cc1ccc(S(=O)(=O)CCC(=O)Nc2ccccc2Cl)cc1
i,-0.16,CNC(=O)CSc1nccn1Cc1ccc(Cl)cc1
i,0.12,CC12CC3CC(C)(C1)CC(Nc1nc(N4CCOCC4)nc4ccccc14)(C3)C2
i,-1.2,CS(=O)(=O)Cc1ccc(C(=O)NC2CCN(Cc3ccccc3)C2)cc1 (configuration not stated)
i,0.57,CCC12OC(=N)C(C#N)(C1C)C(C#N)(C#N)C(c1ccccc1)O2 (configuration not stated)
i,2.5,O=C(NCC#CCOCc1ccccc1)c1ccccc1
i,-1.3,N#CCCn1cc(C(=O)O)c(-c2cc3ccccc3o2)n1
i,-0.25,CCN1CCN(CCC(=O)Nc2ccc(C)cc2)CC1
i,-0.14,CCCCn1nnnc1SCC(=O)N1CCN(C(=O)c2ccco2)CC1
i,2.2,COC(C(=O)N1CCC(n2nccc2NC(=O)C2CC2)CC1)c1ccccc1 (configuration not stated)

3 of the compounds above, with each value named.
Cc1ccc(S(=O)(=O)CCC(=O)Nc2ccccc2Cl)cc1
  KCNQ2 block: i; KCNQ2 block baseline: -1.4
CNC(=O)CSc1nccn1Cc1ccc(Cl)cc1
  KCNQ2 block: i; KCNQ2 block baseline: -0.16
CC12CC3CC(C)(C1)CC(Nc1nc(N4CCOCC4)nc4ccccc14)(C3)C2
  KCNQ2 block: i; KCNQ2 block baseline: 0.12

Later entries:
KCNQ2 block,KCNQ2 block baseline,canonical_smiles
i,0.25,CC(Sc1nc2ccc(C(=O)c3ccccc3)cc2[nH]1)C(=O)O (configuration not stated)
i,-0.78,COC1CCN(C(=O)c2ccc(OC3CCN(Cc4ccccn4)CC3)cc2)CC1
i,3,Cc1ccc(C(=O)NCc2ccc(N3CCN(C(=O)OC(C)(C)C)CC3)cc2)cc1
i,0.97,CC1CCN(c2ccccc2NC(=O)c2ccc(Br)o2)CC1
i,-1.9,Cc1c(Cl)cccc1NC(=S)NN
i,0.39,CCN(CCO)c1cc(Cl)nc(SC)n1
i,-0.11,COc1ccc(NC2CCCN(C(=O)c3cccnc3SC)C2)cc1OC (configuration not stated)
i,0.94,CCCCNC(=O)OCCNC(=O)Oc1cccc(C)c1
i,1.4,COC(=O)CCC(=O)NNC(=O)c1ccc([N+](=O)[O-])cc1
i,0.39,CN(CC(=O)Nc1cccc2ccccc12)C(=O)c1cccc(S(=O)(=O)N(C)C)c1
i,0.74,O=C(O)c1ccc(/C=N\Nc2ccc(S(=O)(=O)N3CCOCC3)cc2[N+](=O)[O-])cc1
i,0.25,O=C(Cn1ccc(=O)[nH]c1=O)Nc1ccc(C(=O)O)c(O)c1
i,0.33,C/C(=N/Nc1cc(-c2ccccc2)nc(-c2ccccc2)n1)c1ccc(O)cc1
i,-0.04,C/C(CC(=O)Nc1cccnc1)=N\NC(=O)c1ccc([N+](=O)[O-])c(Cl)c1
i,1.7,COc1ccc(NC(C)=O)cc1S(=O)(=O)NC(Cc1ccccc1)C(=O)NCc1ccccc1C (configuration not stated)
i,-0.08,Cc1ccc(S(=O)(=O)/N=C(/Nc2c(C)n(C)n(-c3ccccc3)c2=O)c2ccc(Cl)cc2)cc1
i,-0.05,O=C(/C=C\c1cn(-c2ccccc2)nc1-c1ccccc1)Nc1nccs1
i,-0.03,CSc1nc(C2CC2)cc(-c2cccs2)c1C#N
i,1.1,CC(=O)/C(=C/N(C)C)Sc1ccc(C)cc1
i,0.9,CCOC(=O)COc1ccc(/C=C2\NC(=S)N(CC)C2=O)cc1
i,2,O=C(N/N=C/C=C/c1ccccc1)c1cc(C2CC2)[nH]n1
i,-0.67,CN(c1ccc(OCC(=O)OCC(=O)Nc2ccc(Br)cc2)cc1)S(=O)(=O)c1cccs1
i,-2.1,Clc1ncc(CN2CCN(Cc3ccccc3)CC2)s1
i,2.5,Cc1cccc(C)c1NC(=O)C1CC(=O)N(C(C)C)C1 (configuration not stated)
i,0.4,CCCNC(=O)Cc1cc(=O)[nH]c(=O)[nH]1
i,-0.32,O=C(NC(=S)Nc1ccccc1N1CCCC1)c1cccc(F)c1
-6*,0.62*,CC1(C)Cc2ccccc2C(CSc2ccccc2C(=O)O)=N1
i,0.3,CC(=O)Nc1c(-c2cc(=O)oc3cc(C)ccc23)oc2ccccc12
i,-0.84,C/C(=N\Nc1ccc([N+](=O)[O-])cc1)c1ccc(N2CCOCC2)cc1
i,1.4,CCn1cc(C(=O)OCC(=O)c2cc(C)n(-c3cccc(C(F)(F)F)c3)c2C)c(=O)c2ccc(C)nc21

Quoted from the listing.
`CC(=O)Nc1c(-c2cc(=O)oc3cc(C)ccc23)oc2ccccc12` in KCNQ2 block baseline is entered as 0.3
`CCn1cc(C(=O)OCC(=O)c2cc(C)n(-c3cccc(C(F)(F)F)c3)c2C)c(=O)c2ccc(C)nc21` in KCNQ2 block baseline is entered as 1.4
`C/C(=N\Nc1ccc([N+](=O)[O-])cc1)c1ccc(N2CCOCC2)cc1` in KCNQ2 block baseline is entered as -0.84

Bioassay records (PubChem)
